gsp antagonist = antagonizes gsp, the McCune-Albright syndrome mutation; 340,000 compounds, 0.4% hits; Potency, µM (top dose mostly 76.9 µM), inactives show top-dose activity change, negative = inhibition, hits mostly inhibitors; gsp-mutant cells, cAMP HTRF, 30 min; control for the full effect not named in the record; active = falling curve of any shape with a large fitted effect; inconclusive = falling curve, mostly with a smaller effect; inactive = flat or rising curve; cell line not stated here;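 also: intracellular cAMP measured with PDE inhibitor Ro 20-1724 present during compound exposure; potency is read from the fitted curve at half-maximal effect; % is scaled to controls: 0 for no effect and ±100 for the full control effect; nearly all actives have a fitted effect of over 65% in size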
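HTRF cAMP measurement after 30 min RT detection following 30 min, 37C compound treatment alongside […] (added as 300 uM solution) in G418-selected cells seeded at 2000/well and grown 16–24 h.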
Menin MLL FP FL = menin-MLL binding inhibition, fluorescein peptide; Fluorescence polarization, fluorescein-MLL peptide displacement from menin; FP activity change, % at 61.4 µM; 290,000 tested, under 10 active; AID 1766; inconclusive = falling polarisation curve, or a change in total fluorescence; inactive = total fluorescence flat and polarisation flat or rising; no compound was filed as active; the % refers to the polarisation; negative = inhibition;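 also: % of control where 0% means no effect; inhibitors lower the polarisation; unlabelled MLL peptide was the positive control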
Sfp PPTase inh = Sfp phosphopantetheinyl transferase inhibition; Q9F4F7; Potency, µM, for inactives: max response, negative = inhibition, usual class: inhibitors; Biochemical Sfp PPTase activity, qHTS; 310,000 compounds, 3.5% hits; AID 1490; active = well fitted inhibition curve with a large enough effect; inconclusive = small, poorly fitted or top-dose-only effect, or another doubt; inactive = no such curve, though single readings can be large or run the other way;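 also: the enzyme is Sfp with the accession as filed and its product quenches rhodamine fluorescence; potency is read from the fitted curve at half-maximal effect; 0% = enzyme reaction without inhibitor and -100% = no enzyme wells; top concentration of the series not given in the record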
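Compounds were incubated with enzyme (final 15 nM) for 15 min at room temperature before substrate addition started the reaction. Fluorescence at 525 nm excitation, 598 nm emission was recorded immediately and after 30 minutes.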
ClpP mod = qHTS Assay for Activators of ClpP; purified B. subtilis ClpP, FRET peptide cleavage, 20 min; Potency, µM (doses to about 57.5 µM), for the others: at the highest dose activity change, negative = active; 340,000 compounds, 1.9% hits; active = well fitted falling curve with a large enough effect; inconclusive = small, poorly fitted or top-dose-only effect; inactive = no such curve, though single readings can be large or run the other way; also: potency is read from the fitted curve at half-maximal effect; the source files actives as falling curves though it sought activators and does not explain the sign; nearly all actives have a fitted effect of over 65% in size; many hits overshoot -100%
Target sequence (P80244 whole entry, looked up): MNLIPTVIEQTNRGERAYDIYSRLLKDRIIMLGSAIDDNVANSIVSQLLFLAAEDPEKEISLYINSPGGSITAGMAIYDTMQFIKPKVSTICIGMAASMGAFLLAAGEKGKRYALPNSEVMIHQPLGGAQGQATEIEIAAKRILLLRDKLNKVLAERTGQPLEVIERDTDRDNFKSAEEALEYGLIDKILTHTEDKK
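ClpP 10 microg/mL final, pH 8 Tris/KCl buffer with BSA, glycerol, Tween-20; compound pinned in; FRET-FV substrate; RT 20 min; Ex320/Em430; ΔFRET vs ADEP 5.8 microM, DMSO, no enzyme.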
gsp agonist = activates gsp, the McCune-Albright syndrome mutation. gsp mutant cells, cAMP HTRF, 30 min; control for the full effect not named in the record. Potency, µM (titrated, usually from 76.9 µM), inactives show at the top dose activation (cAMP increase), hits mostly activators. 340,000 compounds, 0.13% hits; active = well fitted activation curve with a large enough effect; inconclusive = small, poorly fitted or top-dose-only effect, or another doubt; inactive = no such curve, though single readings can be large or run the other way; cell line not stated here;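 also: phosphodiesterase inhibitor Ro 20-1724 added with compounds to block cAMP breakdown; potency is read from the fitted curve at half-maximal effect; nearly all actives have a fitted effect of over 60% in size; about a fifth of the inactives were tested at one dose only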
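Cells in DMEM/10% FBS with G418 were pretreated with compounds in DMSO plus […] (300 uM stock) for 30 min at 37C. cAMP was measured by HTRF (cAMP-d2 plus anti-cAMP antibody-K) after 30 min at room temperature.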
PINK1 modulator = PINK1 expression modulation. 410,000 compounds, 0.2% hits. Potency, µM (titrated, usually from 76.6 µM), for inactives: at the top dose activation (PINK1 increase), usual class: activators. PINK1 immunofluorescence, high-content cytometry, 24 h; active = well fitted activation curve with a large enough effect; inconclusive = small, poorly fitted or top-dose-only effect; inactive = flat fitted curve, though single readings scatter; cell line not stated here;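 also: potency is read from the fitted curve at half-maximal effect; % of control where 0% means no effect; nearly all actives have a fitted effect of over 65% in size; a mitochondrial uncoupler was the plate control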
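PINK1 protein, normally rapidly degraded, was detected by immunofluorescence after 24 hour compound treatment of a stable cell line. Titration data (5 concentrations) came from laser-scanning cytometry, with CCCP-treated wells as controls.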
D2 agonist = human D2 receptor agonism in beta-arrestin assay | DiscoveRx PathHunter D2 beta-arrestin, luminescence, 90 min; 100% = 57 uM dopamine signal | activation, % (test concentration not listed) | 360,000 compounds, 0.084% hits | AID 624465; in the data active = activation above about 40%; inconclusive = about 15% to 40%; inactive = below about 15%; also: compound concentration not given in the record; the text of the record calls up to 30% inactive
Target sequence (P14416 whole entry, looked up): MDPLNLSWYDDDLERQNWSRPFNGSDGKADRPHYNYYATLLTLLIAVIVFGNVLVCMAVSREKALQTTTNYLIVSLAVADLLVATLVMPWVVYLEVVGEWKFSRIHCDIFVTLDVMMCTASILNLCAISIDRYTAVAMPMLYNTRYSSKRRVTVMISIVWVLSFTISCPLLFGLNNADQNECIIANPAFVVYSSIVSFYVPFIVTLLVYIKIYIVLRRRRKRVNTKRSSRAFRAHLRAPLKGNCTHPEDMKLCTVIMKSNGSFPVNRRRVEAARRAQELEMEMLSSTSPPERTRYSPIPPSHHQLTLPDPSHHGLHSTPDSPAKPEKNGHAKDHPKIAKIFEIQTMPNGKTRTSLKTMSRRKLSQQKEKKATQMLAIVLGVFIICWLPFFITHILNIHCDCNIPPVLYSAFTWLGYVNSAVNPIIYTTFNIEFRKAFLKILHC
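DiscoveRx PathHunter D2 beta-arrestin cells (2,100/well) attached overnight, then compound-stimulated 90 min at 37 C in HBSS/10 mM HEPES/0.1% Tween-20 buffer; beta-galactosidase complementation read by luminescence after 1 h at ambient temperature. Dopamine 57 uM final (EC100) as control.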
Starred values were filed as active, the others as inactive; ? = inconclusive; nt = no result given; & = joins results of further samples; [ ] = dose if it differs, or a comment. Compounds were not picked by outcome; about 5.1% have a hit in one of these screens.

SMILES	gsp antagonist	Menin MLL FP FL	Sfp PPTase inh	ClpP mod	gsp agonist	PINK1 modulator	D2 agonist
Cn1cc(Cl)c(C(=O)NNC(=S)NC2CCCCC2)n1	14%	-1.6	34%[activator]	0.7%	14%	1.5%	-3.3
COCCCNC(=O)c1ccc(Cn2c(=O)[nH]c3ccccc3c2=O)cc1	6%	-0.9	-2%	-1.2%	8%	0.1%	1.5
CN(C)CCNc1nc2c(c(=O)[nH]c(=O)n2C)n1CC(O)COc1ccc(Cl)cc1Cl (centres undefined)	8%	3.7	11%	0.4%	?	-1.0%	-2.7
Cc1cc(OCC(=O)Nc2nnc(C3CC3)s2)ccc1C(C)C	10%	nt	nt	-0.1%	-14%	4.3%	0.7
c1coc(CNc2nc(N3CCCCC3)nc3ccccc23)c1	-39%	4.4	?	22µM*	-15%	1.6%	-4.2
CC1=C(C(=O)N(C)C)CC(CC(=O)NCc2cccc3ccccc23)C(=O)N1CCC1=CCCCC1 (centres undefined)	nt	nt	nt	0.0%	13%	-0.5%	-9.0
O=C(NCc1cccs1)C1CCN(S(=O)(=O)c2ccc3c(c2)OCCO3)CC1	-4%	-0.1	16%	-1.1%	-10%	?	0.5
C=CCn1nnnc1SCC(=O)Nc1ccccc1C(=O)OC	-13%	0.6	0%	-6.5%	-43%[inhibitor]	-0.8%[38.3 µM]	1.2
CC(O)(c1ccc(F)c(F)c1)c1nc(-c2cccc(C(F)(F)F)c2)cs1 (centres undefined)	nt	nt	nt	4.3%	nt	7.6%	12
O=C(c1cc(Br)c(Br)s1)N1CCOCC1	-4%	nt	nt	0.6%	-27%	-1.4%	-2.0
Cc1ccc(NC(=O)C2CCCCC2C(=O)O)cc1Cl (centres undefined)	-1%	1.3	13%	nt	-17%	2.7%	-5.5
Cc1ccc(S(=O)(=O)N2[C@@H](c3cccc(Cl)c3)C(C(=O)O)=CC[C@H]2c2ccc(C(C)C)cc2)cc1	4%	nt	nt	-2.1%	nt	1.4%	1.8
Cc1cccc(NC(=O)Cn2nnc3sc4c(c3c2=O)CC(C)(C)OC4)c1	-9%	8.6	8%	0.7%	-19%[15.4 µM]	-0.9%	1.9
CCOC(=O)C1(Cc2ccc(O)cc2)NC(c2ccccc2F)C2C(=O)N(C)C(=O)C21 (centres undefined)	-3%	0.9	13%	3.4%	?	-4.4%	-0.1
CCCCN(C)C(=O)c1cc2c(Cl)nc3ccccc3c2s1	9%	-6.0	-21%	nt	20%[15.4 µM]	-0.9%	2.8
CC(C)CNC(=O)c1ccccc1N(Cc1ccccc1)S(C)(=O)=O	13%	-0.2	22%	1.3%	-20%	-0.6%	-5.9
COc1cc(NC(=S)N2CCN(S(=O)(=O)c3ccc(C)cc3)CC2)cc(OC)c1	4%	nt	21%	1.3%	0%	-2.2%	0.3
O=C(NCC(c1ccco1)N1CCN(c2ccccc2)CC1)C(=O)NC1CCCC1 (centres undefined)	8%	nt	nt	-3.4%	20%[15.4 µM]	3.3%	7.0
CCc1nn(CCCC(=O)NCc2cc(Br)ccc2OC)c(=O)c2cc3occc3n12	-31%	-0.1	-8%	-0.7%&-0.9%	-15%	2.4%&1.5%	-1.1
O=C(NCC(c1ccco1)N1CCCC1)c1ccc(S(=O)(=O)Nc2ccc(F)cc2)cc1 (centres undefined)	4%	nt	nt	1.8%	-5%	2.1%	-1.9
CCOC(=O)C1=C(O)C(=O)N(Cc2ccccc2)CC1	14%	-5.1	7%	nt	?	1.7%	-4.7
Cc1cc(=O)[nH]c(NN)n1	-14%	-0.6	45µM*	-6.3%	10%	2.8%	-4.8
CS(=O)(=O)N1CCN(Cc2ccc([N+](=O)[O-])cc2)CC1	5%	1.7	2%	nt	14%	1.5%	-2.8
COc1ccc(-c2cc(C(=O)N3CCN(C(=O)c4ccccc4F)CC3)[nH]n2)cc1	-3%	-3.0	3%	1.8%	3%	1.6%	1.7
FC(F)(F)c1cc(Oc2ccc(Cl)cc2)ncc1-c1nnc(-c2ccc(Cl)cc2)o1	5%	2.4	-7%	2.0%	3%[15.4 µM]	0.7%	-2.5
More records
SMILES	gsp antagonist	Menin MLL FP FL	Sfp PPTase inh	ClpP mod	gsp agonist	PINK1 modulator	D2 agonist
O=S(=O)(c1ccccc1Br)N(CC(O)COCc1ccccc1)C1CC1 (centres undefined)	-9%	nt	nt	0.6%	nt	2.7%	-0.9
CC(C)NC(=O)C1c2ccccc2Oc2ccccc21	8%	0.2	29%	-1.2%	7%[15.4 µM]	-1.3%	3.7
CS(=O)(=O)c1ncc(Cl)c(C(=O)Nc2ccc(N3CCOCC3)cc2)n1	2%	0.7	-42%	1.1%	1%	nt	-2.4
CC[C@]12c3[nH]c4ccc(Cl)cc4c3CCN1C(=O)[C@@H](CC(=O)NC/C=C(\C)CCC=C(C)C)C[C@@H]2C(=O)N1CCN(C(=O)c2ccco2)CC1	-11%	nt	nt	1.2%	nt	?	-2.7
Cc1ccc(NC(=O)CSc2nccc(=O)[nH]2)c(S(=O)(=O)N2CCOCC2)c1	5%	-0.5	-12%	-10%	-51%[inhibitor]	0.4%	-4.9
Fc1ccc(NC(=S)Nc2cccnc2)c(Cl)c1	14%	-1.2	-4%	nt	-13%[15.4 µM]	-2.1%	-1.7
O=C(Nc1ccccc1N1CCOCC1)c1cccc([N+](=O)[O-])c1	3%	1.6	-4%	-7.1%	24%	0.6%	1.7
CCN(c1ccccc1)S(=O)(=O)c1ccc(Cl)c(NC(=O)CNCc2ccccc2OC)c1	-31%	nt	nt	-2.2%	-1%	-1.4%	0.0
CN(C)C(=S)c1ccccc1	5%	2.8	20µM*	1.5%	14%[15.4 µM]	1.3%	-4.4
CCOC(=O)C1=C(CC)Nc2ccccc2N/C1=N\S(=O)(=O)c1cccc(C(C)=O)c1	?	nt	nt	1.0%	-18%	1.0%	1.4
CCOC(=O)C1(CC2CCCCO2)CCN(Cc2nccn2-c2ccc(OC)cc2)CC1 (centres undefined)	1%	-0.7	13%	nt	-8%	2.2%	-3.9
Cc1cc(OCC(=O)N2CCN(c3ccccc3)CC2)c2c(C)cc(=O)oc2c1	14%	2.2	18%	-1.9%	?	5.2%	-2.4
O=C(O)c1cc2cc(Cl)ccc2oc1=O	4%	-0.6	0%	-21%	?	-0.1%[38.3 µM]	0.7
O=C(COc1ccccc1/C=C1/NC(=O)NC1=O)Nc1ccccc1	2%	nt	4%	-3.6%	-13%	-1.2%	-5.3
O=[N+]([O-])c1ccc(OCCCOc2cccc3cccnc23)cc1	5%	0.0	14%	nt	?	5.2%	3.9
COc1ccc(CNC(=O)CCc2nnc3ccc(N4CCC5(CC4)OCCO5)nn23)cc1	6%	nt	8%	-0.3%	0%	-0.5%	-0.2
O=C(C1CCCO1)N1CCN(S(=O)(=O)c2cccc3nsnc23)CC1 (centres undefined)	8%	-1.3	11%	1.9%	0%	0.9%	-0.1
CC(=O)c1ccccc1NC(=O)C1CC(=O)N(c2ccc3c(c2)OCCO3)C1 (centres undefined)	1%	nt	nt	0.6%	-38%[inhibitor]	-0.4%	-4.1
COc1ncc2nc(CCc3ccccc3)c(=O)n(Cc3cccs3)c2n1	nt	-1.7	?	nt	nt	2.3%	nt
Cc1nn(CCO)c2nc(-c3cccs3)cc(C(F)(F)F)c12	2%	1.1	1%	-6.0%	2%[15.4 µM]	-2.1%	-2.3
CCn1c(C)nnc1SCC(=O)Nc1ccc(OC)cc1	nt	nt	nt	-1.6%	-21%	0.3%	-2.1
Cc1cccc(N(C(=O)c2csnn2)C(C(=O)NCc2ccccc2)c2cccs2)c1 (centres undefined)	-19%	1.7	14%	nt	-9%	0.2%	7.5
COc1ccc(C(=O)Nc2ccc(C(=O)c3ccccc3)cc2)cc1	-9%	nt	nt	nt	29%[15.4 µM]	8.4%	6.4
CC(C)n1c(=NC(=O)c2ccco2)c(C#N)cc2c(=O)n3ccccc3cc21	17%	1.0	-6%	?	43%	8.4%	-2.5
CCOC(=O)n1c(=O)n(Cc2ccccc2Cl)c2ccccc21	-2%[15.4 µM]	1.6	-8%	-6.2%	-2%	0.7%	-2.6
More structures
SMILES	gsp antagonist	Menin MLL FP FL	Sfp PPTase inh	ClpP mod	gsp agonist	PINK1 modulator	D2 agonist
COc1ccccc1C(O)(C(=O)NNc1cccc(C)c1)c1ccccc1OC	?	-0.2	7%	nt	-3%[15.4 µM]	9.1%	-1.5
Nc1cc2c(cc1Cl)-c1ccc([N+](=O)[O-])cc1C2=NO	1%	nt	nt	1.4%	3%	-1.1%	-0.7
C=CCn1c(SCC(=O)NC(=O)NCc2ccco2)nc2sc(CC)cc2c1=O	17%	2.2	-4%	0.6%	-33%[inhibitor]	13%	3.4
CC(=O)CCc1ccc(Oc2nc(-c3cccnc3)nc3ccccc23)cc1	?	5.5	-16%	-0.7%	?	0.6%	1.0
COc1cccc(CN2CCNC(=O)C2CC(=O)NCCn2cccn2)c1OC (centres undefined)	10%	-17	7%	-3.4%	-69%[inhibitor]	-1.2%	-2.1
CCOc1ccc(N=Cc2ccc([N+](=O)[O-])cc2)c(O)c1	nt	nt	nt	-0.5%	5%	27%	15
Nc1nc(SCC(=O)Nc2cc(Cl)ccc2Cl)n[nH]1	0%	nt	nt	-3.1%	-16%	-3.6%	-2.0
CCCNC(=O)C1CN(S(=O)(=O)c2ccccc2)CCN1S(=O)(=O)c1ccccc1 (centres undefined)	-6%	-1.5	18%	-3.7%	12%	-1.9%[38.3 µM]	0.2
CS(=O)(=O)c1ccc(NC(=O)c2cccc(S(=O)(=O)N3CCN(Cc4ccccc4)CC3)c2)cc1	-17%	nt	15%	-1.9%	-8%	0.4%	2.6
COc1cccc(Cn2c(=O)c(CCc3ccccc3)nc3cncnc32)c1	nt	20	-6%	nt	nt	1.5%	nt
COC(=O)NC1(C(=O)O)CCCC1	6%	-8.3	5%	-3.4%	-1%	-0.2%	-1.6
COc1ccccc1Oc1ccc(N/C=C/C(=O)c2ccco2)cc1	-39%	5.1	-22%	nt	-1%[15.4 µM]	3.3%	-1.7
